INS promoter inh – TRM-6 insulin promoter activity inhibition; actives 0.9% (n = 130,000); inhibition, % at 2 µM; TRM-6 cells (human fetal islet line), insulin promoter-eGFP reporter, imaging; reporter expression induced with tamoxifen;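 active = inhibition above the mean plus 3 SD, with well images judged a real hit on visual review, cut at about 60% in these data, passing the limit was not always enough; inconclusive = inhibition over the cutoff but images rejected on review; inactive = inhibition not above the cutoff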
RGS16-Gao – RGS16-Galphao interaction regulator (human) | bead-based flow cytometry RGS16-Galphao binding, fluorescence; actives lie on both sides | binding response (% of control), % at 10 µM | actives 0.38% (n = 220,000);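 active = below 25% or above 175%, edge rows of some plates excepted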;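 note: Galphao activated by GDP with aluminum fluoride before binding; 100% = wells without compound and 0% = beads without RGS; some results beyond the cut were filed as inactive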
PKD1 inh – PKD1 (human) kinase inhibition; AID 797; inhibition, %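 (about 10 µM by stock and volumes)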; actives 0.056% (n = 200,000); Q15139; PKD1 kinase fluorescence polarization assay;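 active = inhibition of 50% or more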;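 note: controls were vehicle for no effect and a reference inhibitor for full effect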
Target sequence (Q15139 whole entry, looked up): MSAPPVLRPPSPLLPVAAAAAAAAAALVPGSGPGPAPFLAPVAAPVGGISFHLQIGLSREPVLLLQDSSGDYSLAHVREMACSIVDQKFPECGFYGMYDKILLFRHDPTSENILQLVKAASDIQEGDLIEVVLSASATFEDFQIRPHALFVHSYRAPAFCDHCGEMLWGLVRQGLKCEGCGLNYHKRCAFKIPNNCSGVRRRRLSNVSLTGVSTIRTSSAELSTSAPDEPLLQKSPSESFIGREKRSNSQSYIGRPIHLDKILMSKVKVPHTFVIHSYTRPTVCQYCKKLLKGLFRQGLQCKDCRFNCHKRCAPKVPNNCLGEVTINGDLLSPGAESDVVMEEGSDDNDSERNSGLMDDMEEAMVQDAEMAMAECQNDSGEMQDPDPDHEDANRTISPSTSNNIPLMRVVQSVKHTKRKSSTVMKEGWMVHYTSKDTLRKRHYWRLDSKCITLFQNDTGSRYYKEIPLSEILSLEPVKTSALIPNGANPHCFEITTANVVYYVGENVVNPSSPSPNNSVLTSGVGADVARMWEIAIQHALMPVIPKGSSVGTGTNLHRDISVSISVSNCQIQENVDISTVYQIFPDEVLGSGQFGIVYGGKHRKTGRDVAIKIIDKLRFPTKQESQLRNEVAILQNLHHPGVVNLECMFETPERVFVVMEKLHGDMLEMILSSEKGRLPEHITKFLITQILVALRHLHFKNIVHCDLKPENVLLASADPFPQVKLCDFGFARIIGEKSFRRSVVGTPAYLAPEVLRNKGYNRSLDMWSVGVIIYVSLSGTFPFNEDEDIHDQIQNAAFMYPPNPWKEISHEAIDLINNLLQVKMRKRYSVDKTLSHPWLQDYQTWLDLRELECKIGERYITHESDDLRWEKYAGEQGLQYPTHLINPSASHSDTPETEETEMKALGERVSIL
HSV augment – HSV replication enhancement. HSV replication augmentation in cells, fold increase. maximum fold increase. actives 0.005% (n = 220,000). AID 1956;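 active = peak rise of 1.5-fold or more in the series; inconclusive = self-fluorescent or not available for retest; tested in PC3 cells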;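 note: first round at 10 µM; read as green reporter fluorescence; hits show the peak of a series up to 25 µM; 1 = signal of infected wells without compound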
GALR2 agonist – activates the human galanin receptor 2; O43603; GALR2-expressing cells, agonist activation read-out; activation, %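 (tested at 5 µM)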; actives 0.48% (n = 140,000);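 active = above mean plus 3 SD of all compounds, about 5% in these data, not always enough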;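 note: 0% = vehicle buffer wells and 100% = reference agonist at full effect; tested in CHO reporter cells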
INS promoter inh cell count – recorded beside INS promoter inh, whose call it bears; normalized cell count, %; measured here: cell count, toxicity; reference of the scale not given here;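 cells exposed to compound for 48 h; stained nuclei by imaging scaled within each plate; lower means fewer cells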
HSV augment primary fold – second read-out of HSV augment, no call of its own (marks repeat the call); fold increase; compound at 10 µM; measured here: primary screen fold increase 10 uM; tested in PC3 cells;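 GFP signal in the first replicate; 1 = infected wells without compound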
Numbers without * were called inactive; i = inactive; ? = inconclusive; nt = no result given.

SMILES	INS promoter inh	INS promoter inh cell count	RGS16-Gao	PKD1 inh	HSV augment	HSV augment primary fold	GALR2 agonist
CCN1C(=O)/C(=C2\Sc3ccccc3N2CC)OC1=S	-100	170	106	-7	i	0.92	1.1
Cc1ccc(S(=O)(=O)N(C)C)cc1NC(=S)NC(C)CCC(C)C (configuration not stated)	7	71	48	-2	i	0.97	0.4
COc1ccc(-n2nccc2-c2nn(-c3cccc(OC)c3)c(=O)n(C)c2=O)cc1	-25	109	106	10	i	1.1	-1.4
O=[N+]([O-])c1cccc(P(=O)(O)c2cccc([N+](=O)[O-])c2)c1	nt	nt	98	nt	i	0.95	nt
CCOc1ccc(OCC)c(NC(=O)CCS(=O)(=O)c2ccc(Br)s2)c1	-42	112	101	-4	i	0.82	-0.5
c1ccc(-c2noc(CN3CCCC(OCc4ccccn4)C3)n2)cc1 (configuration not stated)	nt	nt	102	10	i	0.93	nt
CC1CCCCN1C(=O)Cn1cnc2cc([N+](=O)[O-])ccc2c1=O (configuration not stated)	nt	nt	100	-6	i	1.1	nt
CCc1cccc(CC)c1NC(=S)/C(=C(\[O-])c1ccc(Cl)s1)[n+]1ccccc1	nt	nt	102	-1	i	0.98	nt
CCN(CC)CCNC(=O)c1ccc(N2CCCCC2)c(NS(=O)(=O)c2ccc(C)cc2)c1	57	96	106	2	i	0.85	19*
NC(=O)[C@@H]1CC2(CC(c3cccc(NC(=O)[C@H]4CCC(=O)N4)c3)=NO2)CN1C(=O)COc1ccc(Cl)cc1 (some centres not stated)	nt	nt	94	nt	i	0.8	nt
CCCCCC(=O)Nc1ncc2c(n1)CC(c1cccs1)CC2=O (configuration not stated)	nt	nt	101	nt	i	0.96	nt
COc1ccc(OCC(=O)N/N=C(\C)CC(=O)Nc2ccc(OC)cc2[N+](=O)[O-])cc1	56	103	54	1	i	0.95	nt
CN1CCC(N(C)C(=S)NC(=O)c2cc(-c3cccc(Br)c3)nc3ccccc23)CC1	12	71	101	0	i	0.95	nt
CCCNC(=O)C(Cc1ccccc1)NS(=O)(=O)c1ccc2c(c1)CCC(=O)N2 (configuration not stated)	nt	nt	123	-3	i	0.99	-4.1
CC1(C)CC(=O)c2cn3nc(C(F)(F)F)nc3nc2C1	46	127	95	-7	nt	nt	-0.3
COc1cc2[nH]c(=O)c(C(=O)NCCCN3CCCCC3)c(O)c2cc1OC	45	84	96	-3	i	0.93	-1.1
COc1ccc(NC(=O)c2ccc(C#N)cc2)cc1NS(=O)(=O)c1ccc(F)cc1	-31	93	105	-6	i	0.95	-2.5
CCOc1ccc(N2C(=O)CC(N3CCOCC3)C2=O)cc1 (configuration not stated)	nt	nt	96	-6	i	0.88	-1.5
Cc1ccc(-n2c(SCC(=O)N/N=C/c3ccccc3OCC(=O)O)nc3ccccc3c2=O)cc1	nt	nt	106	nt	i	0.9	nt
Clc1ccc(CCNc2nc3ccccc3n3nnnc23)cc1	nt	nt	78	5	nt	nt	-3.7
Cc1ccc(NC(=O)c2cccnc2)cc1S(=O)(=O)N(C)C	nt	nt	104	-9	i	0.88	nt
NS(=O)(=O)c1ccc(CCNCc2cc(Br)ccc2OCc2ccccc2)cc1	-8	135	110	-3	i	0.9	0.3
CCc1cc2c(-c3ccccc3)cc(=O)oc2c(CN2CCOCC2)c1O	nt	nt	96	-2	i	0.85	-2.3
CCOc1cc(CNCC(C)C)c(Cl)cc1OCC(=O)Nc1ccccc1	nt	nt	95	-8	i	0.97	nt
COc1cc(/C=N/NC(=O)C2CCN(CC(O)COCc3ccccc3)CC2)cc(OC)c1OC (configuration not stated)	nt	nt	98	-8	i	0.86	nt
Cc1c(Cl)cnc(NC(=O)COC(=O)CCc2nc3ccccc3s2)c1Cl	nt	nt	94	-2	i	1.2	-0.6
Cc1ccc(OCC(=O)N2CCN(C(=O)c3cccnc3)CC2)cc1	-267	91	90	3	i	0.83	-2.5
CCOc1cc(C(=O)Nc2ccc([N+](=O)[O-])cn2)cc(OCC)c1OCC	31	155	94	-9	i	0.85	0.0
Cc1ccc(S(=O)(=O)c2nc(-c3ccco3)oc2SCC(=O)NCC2CCCO2)cc1 (configuration not stated)	26	50	100	-8	i	0.95	-1.5
CCOC(=O)c1cnc2cc(-c3ccc(C)cc3)nn2c1-c1ccccc1	-17	65	92	-8	i	0.98	-0.6
N/C(COc1ccccc1)=N\NC(=O)c1cccnc1Oc1ccccc1	8	95	100	1	i	0.88	-1.8
Cc1cc(C(F)(F)F)nn1Cc1n[nH]c(=S)n1Cc1ccccc1	50	131	95	2	i	0.91	-2.5
O=C(N/N=C\c1ccc(F)cc1)c1ccc(F)cc1	25	82	102	4	i	0.94	nt
NS(=O)(=O)c1ccc(CCNC(=O)C2CCCCC2)cc1	27	67	106	-4	i	0.83	-2.2
Cc1ccc(C)c(S(=O)(=O)N2CCCOC2CNC(=O)C(=O)NCc2ccncc2)c1 (configuration not stated)	nt	nt	99	-9	i	1.1	nt
Cc1ccc(N2C(=O)c3ccccc3C2C(=O)c2ccc(O)cc2O)cc1 (configuration not stated)	-31	85	49	-3	i	0.83	-0.4
CCOC(=O)CC1C(=O)NCCN1S(=O)(=O)c1ccccc1 (configuration not stated)	6	106	103	0	i	0.93	nt
OC(COc1cc(Cl)c(Cl)cc1Cl)CN1CCN(c2ncccn2)CC1 (configuration not stated)	nt	nt	107	-1	i	1.1	-1.9
Cc1cc(C)cc(N(C(=O)Cn2nnc3ccccc32)C(C(=O)NCc2ccco2)c2ccncc2)c1 (configuration not stated)	nt	nt	102	-6	i	0.89	1.2
CCOc1ccc(C(=O)n2cnnc2N)cc1	nt	nt	83	nt	i	1	nt
COc1ccccc1C(=O)NCCc1nc2ccccc2n1C	nt	nt	117	nt	i	0.92	nt
O=C(CCC(=O)c1cccs1)NCc1ccc(F)cc1	22	137	86	-4	i	0.93	-2.6
CCc1ccc(NS(=O)(=O)c2cccc3nonc23)cc1	0	173	118	-1	i	0.97	nt
O=C(NN1CCN(Cc2ccccc2Cl)CC1)c1ccc(Cl)cc1	27	100	104	-5	i	0.94	-1.1
CN1C(=O)c2ccccc2OC1(C)Cc1ccccc1 (configuration not stated)	-44	126	102	-1	i	1	-0.1
CN(C)c1ccc(N/C=C/C(=O)c2ccc(F)cc2)cc1	-338	90	92	-3	i	1	-3.3
CC1(C(=O)NC(=S)N(CCC#N)c2ccccc2)CC1(Cl)Cl (configuration not stated)	nt	nt	102	-5	i	0.94	-3.2
Clc1c(-c2ccccc2)nnn1-c1ccccc1	42	61	100	2	i	1.1	-0.9
COC(=O)CSc1nc(C)cc(C)c1C#N	nt	nt	71	0	i	0.93	nt
CN(C)c1cccc(NC(=O)C2(C)CC2(Cl)Cl)c1 (configuration not stated)	-15	145	98	7	i	1	0.3
O=C(/C=N/O)Nc1cccnc1	19	151	98	1	i	0.88	-2.8
Cc1c(C#N)c2ncnc(N)c2n1-c1ccccc1	nt	nt	109	5	i	0.89	-0.7
O=C(NN1C(=O)CSC1=S)c1cccnc1	nt	nt	100	nt	i	1.1	nt
COc1ccc(CC2C(=O)OC(C)(C)OC2=O)cc1	7	199	106	0	i	0.93	-3.8
CC(=O)Nc1ccc(NC(=O)/C=C/c2ccc(Cl)cc2)cc1	-81	79	108	1	i	0.98	nt
CC1(C)SCC(C(=O)O)NC1=O (configuration not stated)	-41	57	101	3	i	0.91	nt
COc1ccccc1N1CCN(CC(=O)Nc2cc(F)ccc2C)CC1	14	112	101	7	i	0.9	-1.3
CCc1ccc2c(c1)/C(=N/N(C)C(=S)NC)C(=O)N2	nt	nt	103	6	nt	nt	-2.3
C/C(=N\NC(=O)c1[nH]c2c([N+](=O)[O-])cc(C)cc2c1-c1ccccc1)c1cccnc1	28	165	98	1	?	nt	0.5
Cc1ccc(C(=O)NNC(=O)c2cccnc2SCc2cccc([N+](=O)[O-])c2)cc1	nt	nt	97	-1	i	0.91	-1.7

Next part:
SMILES	INS promoter inh	INS promoter inh cell count	RGS16-Gao	PKD1 inh	HSV augment	HSV augment primary fold	GALR2 agonist
CCOC(=O)c1c(C)nc2c(c1-c1cc(OC)ccc1OC)C(=O)CC(C)(C)C2	nt	nt	97	nt	i	0.89	nt
Cc1c2cnn(CC(=O)Nc3cccc(C(F)(F)F)c3)c(=O)c2c(C)n1Cc1ccccc1F	23	94	108	-12	i	1.1	0.0
CCN(CC)S(=O)(=O)c1ccc(N2CCOCC2)c(NS(=O)(=O)c2ccc(C)cc2)c1	19	103	101	3	i	1	-0.3
COc1cc(C(=O)N[C@H](C(=O)NC2CCCCCC2)C(C)C)cc(OC)c1OC	nt	nt	86	-12	i	0.97	-1.5
O=C(CCn1c(=O)oc2ccccc21)NCc1ccc2c(c1)OCO2	nt	nt	101	-11	i	0.96	-1.0
COc1ccc(-c2cc(C(=O)NNC3=NCCC3)c3c(C)nn(-c4ccccc4)c3n2)cc1	nt	nt	99	-1	i	0.77	nt
O=C(CN1CCOc2ccccc21)NCc1cccs1	nt	nt	104	2	i	0.69	-0.1
Cn1c(=O)n(C)c2cc([N+](=O)[O-])c(N3CCN(S(=O)(=O)c4ccccc4)CC3)cc21	nt	nt	168	8	i	0.93	-0.5
Cc1cccc(N=Cc2[nH]c3ccc(Br)c(Cl)c3c2O)c1	0	106	139	-13	i	1.1	-1.4
O=C(O)/C=C\C(=O)NCc1cccnc1	nt	nt	105	-3	i	0.99	nt
Cc1c(C(=O)N2CCN(Cc3ccccc3)CC2)sc2ncnc(N3CCOCC3)c12	nt	nt	104	0	i	0.83	-1.0
CC(NC(=O)CN1CCN(Cc2ccc(Cl)cc2)C1=O)c1ccc2c(c1)OCCO2 (configuration not stated)	15	102	63	-3	i	0.93	0.0

GALR2 agonist: entries above that show a hit
Structure | RGS16-Gao | PKD1 inh | HSV augment | HSV augment primary fold | GALR2 agonist
CCN(CC)CCNC(=O)c1ccc(N2CCCCC2)c(NS(=O)(=O)c2ccc(C)cc2)c1 | 106 | 2 | i | 0.85 | 19*

Later entries.
SMILES	INS promoter inh	INS promoter inh cell count	RGS16-Gao	PKD1 inh	HSV augment	HSV augment primary fold	GALR2 agonist
CC(Cc1ccccc1)C(=O)NCc1ccncc1 (configuration not stated)	5	83	106	-4	i	0.95	-0.1
COc1ccc(OCC(=O)Nc2cc(-c3nn(C)c(=O)c4ccccc34)ccc2N2CCOCC2)cc1	nt	nt	100	nt	i	0.99	nt
C/C(=N\Nc1nc(N2CCCCCC2)nc(N2CCCCCC2)n1)c1ccccc1	50	114	103	-2	i	0.85	nt
CC(=O)Nc1ccc(SCC(=O)N(CCC#N)c2cc(C)cc(C)c2)cc1	nt	nt	103	-11	i	1.1	-1.6
CCCc1cc(=O)[nH]c(SCC(=O)CSc2nc(CCC)cc(=O)[nH]2)n1	nt	nt	101	-14	i	1.2	-1.5
COc1ccccc1-n1c(CNC(=O)c2cccs2)n[nH]c1=S	-21	77	102	-6	i	0.97	nt
CCc1ccc(OCC(=O)NC(NC(=S)Nc2ccccc2C)C(Cl)(Cl)Cl)cc1 (configuration not stated)	nt	nt	104	-4	i	0.88	0.1
CCCC(C(=O)NC1CCCC1)N(C(=O)Cn1nnc(-c2ccc(C)o2)n1)C1CCCC1 (configuration not stated)	nt	nt	93	-8	i	1	-1.9
C=CCNc1nnc(-c2ccncc2)s1	-16	191	100	-2	i	0.91	-1.0
CS(=O)(=O)N(CC(=O)NCCSC1CCCCC1)c1cccc(F)c1	-11	87	107	-13	i	0.97	-1.1
CC1=CC=CN2C1=NC(=O)CC2(C)C(=O)N(CC(=O)NC1CCCC1)c1cc(C)cc(C)c1 (configuration not stated)	nt	nt	91	1	i	0.87	nt
Cc1nn(C)c(C)c1NC(=O)CCSc1nc(-c2ccco2)cc(C(F)(F)F)n1	1	169	104	4	i	0.97	-1.3

A second format for seven compounds above.
Each structure is followed by: INS promoter inh, INS promoter inh cell count, RGS16-Gao, PKD1 inh, HSV augment, HSV augment primary fold, GALR2 agonist
> CN1C(=O)c2ccccc2OC1(C)Cc1ccccc1 (configuration not stated)
 : -44, 126, 102, -1, i, 1, -0.1
> CCOC(=O)c1cnc2cc(-c3ccc(C)cc3)nn2c1-c1ccccc1
 : -17, 65, 92, -8, i, 0.98, -0.6
> O=C(CN1CCOc2ccccc21)NCc1cccs1
 : nt, nt, 104, 2, i, 0.69, -0.1
> CC1(C)CC(=O)c2cn3nc(C(F)(F)F)nc3nc2C1
 : 46, 127, 95, -7, nt, nt, -0.3
> Cc1ccc(S(=O)(=O)N(C)C)cc1NC(=S)NC(C)CCC(C)C (configuration not stated)
 : 7, 71, 48, -2, i, 0.97, 0.4
> CC1=CC=CN2C1=NC(=O)CC2(C)C(=O)N(CC(=O)NC1CCCC1)c1cc(C)cc(C)c1 (configuration not stated)
 : nt, nt, 91, 1, i, 0.87, nt
> O=C(/C=N/O)Nc1cccnc1
 : 19, 151, 98, 1, i, 0.88, -2.8

Screens: PubChem BioAssay, several laboratories
